MARV entry inh: inhibitors of Marburg virus binding or cell entry; 1.8% of 300,000 active; Potency, µM (titrated, usually from 37.8 µM), for inactives: top-dose activity change, negative = inhibition, actives largely listed as inhibitors; Marburg virus pseudotyped entry inhibition, cell reporter; control for the full effect not named in the record; about a third of the inactives were read at about 46 µM; active = well fitted inhibition curve with a large enough effect; inconclusive = small, poorly fitted or top-dose-only effect, or effect the other way; inactive = flat fitted curve, though single readings scatter; tested in HEK293 cells; about a fifth of its hits are not listed in these tables; note: % is set by controls: 0 for no effect and ±100 for the full control effect; luciferase read-out
Lassa entry inh: Lassa virus entry inhibition; Potency, µM (titrated, usually from 37.9 µM), for inactives: at the top dose activity change, negative = inhibition, usual class: inhibitors; AID 540256; 1.2% of 300,000 active; Lassa virus pseudotype entry inhibition, cell reporter; control for the full effect not named in the record; active means well fitted inhibition curve with a large enough effect; inconclusive means small, poorly fitted or top-dose-only effect, or effect the other way; inactive means flat fitted curve, though single readings scatter; tested in HEK293 cells; note: % is set by controls: 0 for no effect and ±100 for the full control effect; nearly all actives have a fitted effect of over 50% in size; luciferase read-out
Cruzain noTriton: blocks cruzain activity in detergent-free assay; P25779; purified cruzain, Z-FR-AMC fluorescence, no detergent; Potency, µM, inactives show max response, negative = inhibition, usual class: inhibitors; 2.3% of 200,000 active;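 note: plate controls were enzyme without inhibitor for no effect and buffer without enzyme for full effect; nearly all actives have a fitted effect of over 40% in size; top concentration of the series not given in the record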
Target sequence (P25779 123-467 limits assumed): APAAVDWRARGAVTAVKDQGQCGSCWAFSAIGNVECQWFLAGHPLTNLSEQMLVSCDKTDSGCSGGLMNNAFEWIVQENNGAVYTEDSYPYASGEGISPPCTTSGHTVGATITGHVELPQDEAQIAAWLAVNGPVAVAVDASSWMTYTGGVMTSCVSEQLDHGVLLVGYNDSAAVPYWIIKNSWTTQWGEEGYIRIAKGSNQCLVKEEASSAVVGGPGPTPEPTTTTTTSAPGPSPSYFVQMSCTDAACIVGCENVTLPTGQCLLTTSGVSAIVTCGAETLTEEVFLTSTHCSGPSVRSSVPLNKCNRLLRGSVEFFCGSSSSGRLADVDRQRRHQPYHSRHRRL
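Purified cruzain at 1.5 nM, pre-incubated 15 min with compound at room temperature in 100 mM sodium acetate pH 5.5, 5 mM DTT, 0.00005% Triton X-100. Reaction started with 2 uM Z-FR-AMC; AMC fluorescence increase over 60 s gives rate.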
SARS PLP yeast: blocks SARS-CoV papain-like protease in a yeast assay. S. cerevisiae expressing SARS-CoV PLpro, growth rescue; control for the full effect not named in the record. AID 485353. Potency, µM (highest dose often 32.9 µM), without a hit: at the top dose activity, positive = growth rescue. 0.19% of 330,000 active; active means well fitted rising curve with a large enough effect; inconclusive means small, poorly fitted or top-dose-only effect; inactive means no such curve, though single readings can be large or run the other way; note: 0% is about no effect; nearly all actives have a fitted effect of over 55% in size; growth read by luminescence after 48 h
Cruzain Triton: blocks cruzain activity in presence of Triton detergent; AID 1478; Potency, µM, for inactives: max response, negative = inhibition, usual class: inhibitors; 0.43% of 200,000 active; P25779; purified cruzain, Z-FR-AMC fluorescence, 0.01% Triton;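 note: plate controls were neutral wells for no effect and buffer without enzyme for full effect; nearly all actives have a fitted effect of over 40% in size; top concentration of the series not given in the record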
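Cysteine protease activity tested under reducing, mildly acidic conditions (100 mM sodium acetate pH 5.5, 5 mM DTT) plus 0.01% Triton X-100. Cruzain 1.5 nM; substrate Z-FR-AMC 2 uM; 15 min compound preincubation at room temperature.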
RE007 growth inh: less growth of the S. pombe RE007 Vpr strain; S. pombe RE007 Vpr strain, BacTiter-Glo ATP luminescence, 24 h; control for the full effect not named in the record; Potency, µM (series often up to 92.2 µM), for the others: at the top dose activity change, negative = less growth; 0.21% of 360,000 active; AID 651644; active = well fitted falling curve with a large enough effect; inconclusive = small, poorly fitted or top-dose-only effect; inactive = no such curve, though single readings can be large or run the other way;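 note: % is set by controls: 0 for no effect and ±100 for the full control effect; nearly all actives have a fitted effect of over 50% in size; the assay follows cell death caused by Vpr and the record does not say whether a fall means rescue or toxicity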
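Fission yeast RE007 carrying one integrated HIV-1 vpr copy, seeded at OD 0.01 in PMG+AL medium with 23 nL pinned compound. Grown 24 h at 30 degrees; viability read by BacTiter-Glo luminescence after 5 min.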
2A StopGo: lowers the luciferase signal of an FMDV 2A StopGo reporter. human cells with a luciferase reporter of 2A StopGo recoding; control for the full effect not named in the record. Potency, µM (doses to about 57.9 µM), inactives show at the top dose signal change, negative = less light. 1.2% of 410,000 active; active = well fitted falling curve with a large enough effect; inconclusive = small, poorly fitted or top-dose-only effect; inactive = no such curve, though single readings can be large or run the other way; tested in HEK293T cells; note: % is set by controls: 0 for no effect and ±100 for the full control effect; nearly all actives have a fitted effect of over 45% in size; luciferase light after 4 h
NS1 inh: inhibitors of influenza NS1 protein function; S. cerevisiae slowed by influenza A NS1, growth recovery by OD600; Potency, µM (highest dose often 46.1 µM), without a hit: at the top dose activity, positive = more growth; 0.4% of 270,000 active; active means well fitted rising curve with a large enough effect; inconclusive means small, poorly fitted or top-dose-only effect; inactive means no such curve, though single readings can be large or run the other way; note: nearly all actives have a fitted effect of over 50% in size
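Compounds were scored for reversing the slow growth caused by influenza A NS1 in S. cerevisiae, measured by optical density at 600 nm. Assay medium contained 2% galactose at pH 6.0; NS1-free yeast of the same strain were the positive control.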
* marks the source's active call; other numbers are inactive results; & = joins results of further samples; [ ] = another dose, or the depositor's remark. Unless noted, calls come from the whole dose curve; as a rule, active = well fitted curve in the direction sought with a large enough effect; inconclusive = small, poorly fitted or top-dose-only effect, or another doubt; inactive = no such curve, though single readings can be large; an effect the other way counts as inactive or inconclusive. Potency is the fitted concentration of half-maximal effect. Compounds were not picked by outcome. Share with any hit: about 4.7%.

`O=C(Cc1cccs1)Nc1cccnc1` gave MARV entry inh -5%, Lassa entry inh -5%, Cruzain noTriton -5%, SARS PLP yeast 0%, Cruzain Triton -0.1%, RE007 growth inh -10%, 2A StopGo 2% and NS1 inh inconclusive.
CCOC(=O)C1(CCCc2ccccc2)CCN(C(=O)[C@@H]2C[C@@H](C)NC(=S)N2)CC1 was read as MARV entry inh inconclusive, Lassa entry inh 0%, SARS PLP yeast -1%, RE007 growth inh 1%, 2A StopGo -12% and NS1 inh 5%.
For COC(=O)Cn1c(=NC(=O)c2ccc(S(=O)(=O)N3CCc4ccccc4C3)cc2)sc2cc(OC)ccc21 the results were MARV entry inh 2%, Lassa entry inh -9%, Cruzain noTriton 6.3µM*, SARS PLP yeast -2%, Cruzain Triton -3.8%, RE007 growth inh 9%, 2A StopGo -10% and NS1 inh -3%.
For CC(=O)Nc1cccc(NC(=O)CSc2nc(=O)n(Cc3ccccn3)c3c2CCC3)c1 the results were MARV entry inh -11%[46.1 µM], Lassa entry inh 18%, SARS PLP yeast 4%, RE007 growth inh -2% and 2A StopGo 10%.
Cc1oc2ccc(NS(=O)(=O)c3ccc(F)cc3)cc2c1C(=O)O was read as MARV entry inh -23%&-17%[46.1 µM], Lassa entry inh -3%&-3%[46.1 µM], Cruzain noTriton -13%, SARS PLP yeast 0%, Cruzain Triton -4.5%, RE007 growth inh -3%, 2A StopGo -3%&-4% and NS1 inh -1%.
Screening Cc1ccc(Cn2c(SCC(=O)N/N=C/c3ccc(C)o3)nc3ccccc32)cc1 returned MARV entry inh -23%[46.1 µM], Lassa entry inh 27%, Cruzain noTriton -24%, SARS PLP yeast -7%, Cruzain Triton -8.1%, RE007 growth inh 32%, 2A StopGo -19% and NS1 inh 6%.
Cc1ccccc1NC(=S)NCCC(c1ccccc1)c1ccccc1 was read as MARV entry inh inconclusive, Lassa entry inh -11%, Cruzain noTriton 11%, SARS PLP yeast 12%, Cruzain Triton -3.7%, RE007 growth inh 33%, 2A StopGo 19% and NS1 inh -61%.
For CN(C1CCCCC1)S(=O)(=O)Cc1ccccc1 the results were MARV entry inh 5%, Lassa entry inh 2%, Cruzain noTriton -14%, SARS PLP yeast -1%, Cruzain Triton -1.9%, RE007 growth inh 6%, 2A StopGo 4% and NS1 inh -8%.
Screening CC(=O)c1ccc(NC(=O)C[n+]2ccccc2)cc1 returned SARS PLP yeast -4%, RE007 growth inh 3%, 2A StopGo 14% and NS1 inh 0%.
O=C(Nc1ccc(F)c(Cl)c1)C1CC(=O)N(Cc2ccccc2)C1 (stereo unspecified) was read as MARV entry inh -1%, Lassa entry inh 0%, RE007 growth inh -12% and 2A StopGo -4%.
For Cc1ccc(OCCOCCn2c(-c3ccc(Cl)cc3)nc3ccccc3c2=O)cc1 the results were MARV entry inh 2%[46.1 µM], Lassa entry inh -8%[46.1 µM], Cruzain noTriton -13%, Cruzain Triton -0.8% and 2A StopGo -20%.
O=C(N1CCN(c2ccccc2)CC1)C12CC3CC(CC(C3)C1)C2 was read as MARV entry inh -5%, Lassa entry inh -2%, Cruzain noTriton -6%, SARS PLP yeast -32%, Cruzain Triton 3.3%, RE007 growth inh -5%, 2A StopGo inconclusive and NS1 inh -5%.
Screening C/C(=N\NC(=O)c1cc(C)nc2ccc(C)cc12)c1ccncc1 returned SARS PLP yeast -4%, RE007 growth inh 8%, 2A StopGo -9% and NS1 inh -5%.
Screening CCCOC(=O)c1ccccc1C(=O)OCCC returned Cruzain noTriton -4%, SARS PLP yeast -1%, Cruzain Triton 1.2%, RE007 growth inh -9% and 2A StopGo -25%.
Screening COC(=O)c1nn(-c2ccccc2)c(=O)cc1O returned MARV entry inh 4%[46.1 µM], Lassa entry inh -20%, SARS PLP yeast 2%, RE007 growth inh 6% and 2A StopGo 5%.
O=C(CN1CCN(Cc2ccccc2)CC1)c1ccc(Br)cc1 was read as MARV entry inh 3%, Lassa entry inh 8%, Cruzain noTriton 2%, SARS PLP yeast -17%, Cruzain Triton 1.0%, RE007 growth inh -13%, 2A StopGo -2% and NS1 inh -43%.
`O=C(O)CCC(=O)Nc1ccc(Br)cc1C(=O)c1ccc(Cl)cc1` gave SARS PLP yeast 0%, RE007 growth inh 0%, 2A StopGo -15% and NS1 inh -1%.
For CC(CCc1ccc(O)cc1)N1CCC(Oc2ccc(C(=O)N3CCCC3)cc2)CC1 (stereo unspecified) the results were MARV entry inh 2%, Lassa entry inh 14%, SARS PLP yeast -3%, RE007 growth inh 10%, 2A StopGo -4% and NS1 inh -14%.
For Cc1ccc(N2C(=O)C3C4C=CC(CC4)C3C2=O)cc1[N+](=O)[O-] (stereo unspecified) the results were SARS PLP yeast 3%, RE007 growth inh -11%, 2A StopGo 4% and NS1 inh -13%.
Screening CC(C)(C)c1ccc(CNc2cc(N3CCOCC3)ccc2[N+](=O)[O-])cc1 returned MARV entry inh inconclusive, Lassa entry inh inconclusive, Cruzain noTriton 4%, SARS PLP yeast -7%, Cruzain Triton -10%, RE007 growth inh -10%, 2A StopGo -14% and NS1 inh 18%.
For CCCCNC(=O)C1Cc2cc(S(=O)(=O)N3CCCCC3)ccc2N1C(C)=O (stereo unspecified) the results were SARS PLP yeast -3%, RE007 growth inh 9%, 2A StopGo -17% and NS1 inh 7%.
CCOC(=O)N1CCC(n2c(=S)[nH]c3cc(OC)c(OC)cc3c2=O)CC1 was read as MARV entry inh 3%, Lassa entry inh -13%, Cruzain noTriton inconclusive, SARS PLP yeast -3%, Cruzain Triton 1.4%, RE007 growth inh -3%, 2A StopGo -7% and NS1 inh 6%.
N/C(CSc1ncccc1C(F)(F)F)=N\O was read as MARV entry inh 27%, Lassa entry inh 1%, SARS PLP yeast 1%, RE007 growth inh -1%, 2A StopGo -9% and NS1 inh -3%.
For Cc1cc(NC(=O)c2ccc(Cl)c([N+](=O)[O-])c2)no1 the results were MARV entry inh 8%[46.1 µM], Lassa entry inh 13%, SARS PLP yeast -3%, RE007 growth inh 0%, 2A StopGo 8% and NS1 inh 3%.
For O=C(NCc1ccccc1)NC(=O)c1ccccc1 the results were MARV entry inh 16%, Lassa entry inh 1%, Cruzain noTriton -3%, SARS PLP yeast -4%, Cruzain Triton -0.2%, RE007 growth inh -12%, 2A StopGo -5% and NS1 inh -7%.
C=CCNC(=S)N1CCN(CCN=CC2=C(O)CC(c3ccco3)CC2=O)CC1 (stereo unspecified) was read as Cruzain noTriton -2%, SARS PLP yeast -2%, Cruzain Triton 0.6%, RE007 growth inh -12%, 2A StopGo -11% and NS1 inh -4%.
Screening COCCCn1c(=O)/c(=C\c2ccc(OC(F)F)c(OC)c2)s/c1=C(/C#N)C(N)=O returned SARS PLP yeast -1%, RE007 growth inh -7%, 2A StopGo inconclusive and NS1 inh -5%.
Screening CC(NS(=O)(=O)c1ccc(OCC(=O)NCc2cccnc2)cc1)c1ccccc1 (stereo unspecified) returned MARV entry inh 7%[46.1 µM], Lassa entry inh 3%, SARS PLP yeast 3%, RE007 growth inh -12%, 2A StopGo 7% and NS1 inh 5%.
For Nc1ccccc1OCCOCCOCCOc1ccccc1N the results were MARV entry inh 0%, Lassa entry inh 4%, Cruzain noTriton 2%, SARS PLP yeast 3%, Cruzain Triton 4.6%, RE007 growth inh inconclusive, 2A StopGo 0% and NS1 inh inconclusive.
For COc1ccccc1CCNC1C2CC3CC(C2)CC1C3 (stereo unspecified) the results were MARV entry inh inconclusive, Lassa entry inh inconclusive, Cruzain noTriton -7%, SARS PLP yeast -1%, Cruzain Triton 1.9%, RE007 growth inh -9%, 2A StopGo inconclusive and NS1 inh -11%.
Nc1cc(OC(=O)c2ccc(F)cc2)nn1S(=O)(=O)c1ccc(F)cc1 was read as MARV entry inh -7%[46.1 µM], Lassa entry inh 2µM*, SARS PLP yeast -1%, RE007 growth inh 11%, 2A StopGo -6% and NS1 inh 0%.
`COc1cccc(/C=C/C(=O)OC(C)C(=O)Nc2c(C)n(C)n(-c3ccccc3)c2=O)c1` (stereo unspecified) gave MARV entry inh 0%[46.1 µM], Lassa entry inh -14%, SARS PLP yeast 2%, RE007 growth inh -12% and 2A StopGo 3%.
`COc1ccc(C(C(=O)NC2CCCC2)N(Cc2ccccc2)C(=O)CNC(=O)c2ccco2)cc1` (stereo unspecified) gave MARV entry inh 9%, Lassa entry inh inconclusive, Cruzain noTriton 8%, SARS PLP yeast 4%, Cruzain Triton -1.6%, RE007 growth inh 7%, 2A StopGo 13% and NS1 inh -8%.
For S=C1NC[C@H](c2ccccc2)N1CC1CCCCC1 the results were SARS PLP yeast -2%, RE007 growth inh -1%, 2A StopGo 2% and NS1 inh 1%.
Screening Cc1cccc(-c2nsc(SCC(=O)Nc3ccc4c(c3)OCO4)n2)c1 returned MARV entry inh inconclusive, Lassa entry inh 13%, Cruzain noTriton -13%, SARS PLP yeast -7%, Cruzain Triton -3.5%, RE007 growth inh -5%, 2A StopGo 3% and NS1 inh 2%.
For COc1ccc(S(=O)(=O)N2CN3CCN(C3)C2)cc1OC the results were SARS PLP yeast -2%, RE007 growth inh 2%, 2A StopGo -23% and NS1 inh 8%.

Compounds shown so far that have two or more sulfur atoms (two):
For COC(=O)Cn1c(=NC(=O)c2ccc(S(=O)(=O)N3CCc4ccccc4C3)cc2)sc2cc(OC)ccc21 the results were MARV entry inh 2%, Lassa entry inh -9%, Cruzain noTriton 6.3µM*, SARS PLP yeast -2%, Cruzain Triton -3.8%, RE007 growth inh 9%, 2A StopGo -10% and NS1 inh -3%.
Screening Cc1cccc(-c2nsc(SCC(=O)Nc3ccc4c(c3)OCO4)n2)c1 returned MARV entry inh inconclusive, Lassa entry inh 13%, Cruzain noTriton -13%, SARS PLP yeast -7%, Cruzain Triton -3.5%, RE007 growth inh -5%, 2A StopGo 3% and NS1 inh 2%.

Compound activity as filed in PubChem.
